Vif TR-FRET: HIV-1 Vif–A3G interaction blockers – biochemical, TR-FRET, GST-Vif 1-94, biotin-A3G peptide, dose response retest, primary screen (AID 1117319); 260,000 compounds, 0.57% hits; inhibition, %; hits with a dose series show IC50 in µM; TR-FRET GST-Vif / biotin-A3G peptide binding; higher % means a stronger effect; test concentration not given here; strong numbers were not always called active;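 active = above the screen mean plus three standard deviations and confirmed in dose response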;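 also: Vif residues 1-94 fused to GST binding biotinylated APOBEC3G peptide 110-148; 0% = full assay without inhibitor and 100% = GST in place of GST-Vif; retest series ran down from 100 µM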
AF4-AF9 inh: inhibitors of human MLL-AF4/AF9 interaction; AlphaScreen, biotin-AF4 peptide binding to FLAG-AF9; inhibition, % at 10 µM; 350,000 compounds, 0.47% hits;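 active = every replicate reaching a set inhibition limit, whatever the replicate mean, cut at about 25% in these data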;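 also: 0% = plate neutral control median and 100% = total signal loss; the record names both 10 and 1 µM as test concentration; the first replicate is given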
Target sequence (P42568 whole entry, looked up): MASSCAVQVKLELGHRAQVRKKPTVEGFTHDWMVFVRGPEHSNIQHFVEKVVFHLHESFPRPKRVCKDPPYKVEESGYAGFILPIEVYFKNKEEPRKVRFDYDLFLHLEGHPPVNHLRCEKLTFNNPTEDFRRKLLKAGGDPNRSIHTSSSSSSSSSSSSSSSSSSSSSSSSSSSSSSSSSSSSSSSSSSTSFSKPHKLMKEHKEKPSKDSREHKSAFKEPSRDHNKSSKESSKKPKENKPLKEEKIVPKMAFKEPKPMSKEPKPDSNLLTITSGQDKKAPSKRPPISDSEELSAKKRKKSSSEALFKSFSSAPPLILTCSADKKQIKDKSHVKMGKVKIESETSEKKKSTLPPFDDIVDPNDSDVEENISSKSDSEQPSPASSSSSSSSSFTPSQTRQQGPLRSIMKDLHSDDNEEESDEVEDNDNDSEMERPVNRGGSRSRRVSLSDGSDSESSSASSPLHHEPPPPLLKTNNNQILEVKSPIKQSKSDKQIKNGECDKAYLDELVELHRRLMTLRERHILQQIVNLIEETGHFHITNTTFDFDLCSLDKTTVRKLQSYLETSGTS
rRNA inh HTS: inhibits bacterial ribosomal RNA function over humanized ribosomes; E. coli WT GFP vs humanized-ribosome RFP mutants, fluorescence, 24 h; stronger effect = lower value; DMSO median 0, no signal -100; GFP signal change (wild-type ribosome), % (test concentration not listed); 350,000 compounds, 1.6% hits;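 active = significant combined selectivity score with lowered wild-type GFP, culture density cut under 30%, mutant RFP and density less affected; inactive = any of these conditions unmet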; also: one replicate is shown; some compounds called inactive have numbers as strong as hits
rRNA inh HTS OD600: recorded beside rRNA inh HTS, whose call it bears; OD600 change, %; measured here: OD600 growth;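 optical density of the mix in the first replicate; 0 = DMSO median and -100 = no signal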
rRNA inh HTS RFP: recorded beside rRNA inh HTS, whose call it bears; RFP signal change, %; measured here: RFP humanized mutant strains;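 first replicate; 0 = DMSO median and -100 = no signal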
* hit, by the source's call; & = joins results of further samples.

Results follow in this order: Vif TR-FRET	AF4-AF9 inh	rRNA inh HTS	rRNA inh HTS OD600	rRNA inh HTS RFP
CC(C)(C)c1ccc(-n2ncc3c2CCCC3NC(=O)c2ccco2)cc1 (configuration not stated)
  -7%	-1.5	2	-27	16
O=C(O)C(c1cccs1)C1(O)CCCCC1 (configuration not stated)
  -6%	0.2	4	7	-0.5
O=C(O)Cc1ccc(NC(=O)c2ccc3c(c2)C(=O)N(Cc2ccccc2)C3=O)cc1
  -3%	-0.4	17	25	2.8
COc1ccc2[nH]c3c(c2c1)CCN1C(=O)C(CC(=O)NC(C)(C)C)C[C@H](C(=O)N(C(C)C)C(C)C)[C@@]31C (some centres not stated)
  -3%	1.6	4	0	-3.1
N=c1c2ccccc2nc2n1CCCCCCC2
  -3%	-2.9	10	13	-2.1
CCOc1ccc(-n2c(=S)sc3c(=O)[nH]c(SCC(=O)NC4CCCCC4)nc32)cc1
  -4%	2.7	13	12	2.1
CCN1C(=O)/C(=C\C=C\c2ccccc2[N+](=O)[O-])SC1=S
  -4%	1.4	23	20	7.1
CCS(=O)(=O)N1CCC2(CC1)OCCN2S(=O)(=O)c1ccccc1
  4%	-6.4	-1	1	-0.2
CCN(CC)CCCn1c2c(c(SCC(=O)Nc3cc(C)cc(C)c3)nc1=O)CCC2
  -1%	2.1	-8	9	28
COc1ccc(-c2cc(C(F)(F)F)n3nc(C(=O)Nc4c(C)n(C)n(-c5ccccc5)c4=O)cc3n2)cc1
  5%	0.8	-1	16	1.3
CCC[C@H]1CN(c2ccccc2)C(=O)[C@@H]1CC(=O)Nc1ccc(Br)cc1
  -4%	-0.5	-4	-13	-4.4
CCC(CC)CC1CN2CCc3cc(OC)c(OC)cc3C2CC1(O)CC (configuration not stated)
  2%	4.6	-13	4	8.7
COc1ccccc1N(C)S(=O)(=O)c1ccc(C)c(C(=O)N2CCCCCC2)c1
  -6%	1.0	-10	-9	-0.1
CCOc1ccc(NC(=S)N2CCC(C(=O)c3ccc(F)cc3)CC2)cc1
  -1%	1.9	-14	-13	0.8
Cc1ccc(C(C)C)c(OCC(=O)Nc2ccc(N3CCOCC3)cc2N2CCOCC2)c1
  -4%	1.4	9	5	0.0
COc1ccc2[nH]c3c(c2c1)CCN1C(=O)C(CC(=O)NCCN2CCOCC2)C[C@H](C(=O)N(C(C)C)C(C)C)[C@@]31C (some centres not stated)
  -9%	1.1	8	1	2.5
O=C(CCNC(=O)c1ccc([N+](=O)[O-])cc1)NCc1ccccc1
  -2%	0.4	11	20	0.9
O=C(Cc1cccc(NC(=O)C2CCN(C(=O)C3CCCC3)CC2)c1)Nc1cccc(C(=O)N2CCOCC2)c1
  -5%	-11	0	8	-0.4
COc1ccc(NC(=O)COC(=O)CC2Sc3ccccc3NC2=O)cc1 (configuration not stated)
  -2%	5.3	-13	-7	4.6
CC[C@@]1(C(=O)OC)N[C@H](CN(C)S(=O)(=O)c2ccc(F)cc2)[C@@H]2C(=O)N(C)C(=O)[C@@H]21
  8%	-0.9	2	3	2.2
COC(=O)c1nccnc1N
  -4%	-1.8	5	11	-0.8
CCOc1ccccc1NC(=O)COC(=O)c1c[nH]c2ccccc12
  -1%	-2.7	1	4	0.5
CC(C)(C)S(=O)N1Cc2cc(CO)cc(CCO)c2[C@H]1CCO (some centres not stated)
  -5%	-2.2	1	12	1.4
COc1cccc2cc(C(=O)OCC(=O)NC3CCCC(C)C3C)c(=O)oc12 (configuration not stated)
  -1%	3.3	2	6	1.1
CCN(CC)CCCC(C)Nc1nccc2c(Cl)cccc12 (configuration not stated)
  -8%	2.6	7	-6	1.5
CC1=C(C(=O)N(C)C)CC(CC(=O)NCc2cccc3ccccc23)C(=O)N1CCC1=CCCCC1 (configuration not stated)
  -5%	-1.0	-27*	-15*	-3.0*
O=S(=O)(c1ccccc1Br)N(CC(O)COCc1ccccc1)C1CC1 (configuration not stated)
  4%	-1.1	-29	-45	-10.0
Nc1cc2c(cc1Cl)-c1ccc([N+](=O)[O-])cc1C2=NO
  -7%	-0.2	-21	-20	-6.3
CCOc1ccc(N=Cc2ccc([N+](=O)[O-])cc2)c(O)c1
  -4%	11	0	-4	17
Cc1cccc(C)c1OCCOC(=O)c1ccc(S(=O)(=O)N2CCCC2)cc1
  -1%	-3.3	-2	-5	-0.6

Going on with the list:
Results follow in this order: Vif TR-FRET	AF4-AF9 inh	rRNA inh HTS	rRNA inh HTS OD600	rRNA inh HTS RFP
CCN1C(=O)[C@H]2[C@@H](c3ccc(OC)cc3)N[C@]3(CCCN(Cc4ccco4)C3=O)[C@H]2C1=O
  2%	1.6	4	7	9.4
O=C(c1ccc(Cl)c(S(=O)(=O)N2CCOCC2)c1)N(Cc1ccco1)Cc1cccs1
  -4%	-17	-9	-20	-2.8
CN(CC(=O)Nc1ccccc1Cl)C(=O)c1cccc(S(=O)(=O)N2CCN(c3ccccc3)CC2)c1
  -2%	7.9	-6	-6	2.7
COc1ccc(S(=O)(=O)NCC(c2ccc(F)cc2)N2CCOCC2)cc1Br (configuration not stated)
  9%	1.1	2	-7	3.2
COc1ccc(S(=O)(=O)N2CCN(CC(=O)c3c(N)n(C)c(=O)n(C)c3=O)CC2)cc1OC
  2%	-3.1	4	7	2.4
CCCCn1c(N)c(N(CCOC)C(=O)CC2CCCCC2)c(=O)[nH]c1=O
  0%	8.6	10	10	-0.7
CCCCC1CCC(C(=O)Nc2ccccc2N2CCOCC2)CC1 (configuration not stated)
  -6%	-0.6	0	-6	2.9
O=C1NC(=O)N(Cc2ccccc2)CC1Br (configuration not stated)
  2%	6.3	11	12	-0.7
CCN(CC)C(=O)c1[nH]cnc1C(=O)Nc1ccccc1F
  -1%	-2.5	10	10	2.5
Cc1ccc(S(=O)(=O)N2CCOCC2)cc1NC(=O)COC(=O)c1cnc(Cl)c(Cl)c1
  6%	0.1	9	12	-1.9
O=C(COc1ccc(-n2cnnn2)cc1)Nc1cc(Cl)cc(Cl)c1
  0%	3.8	0	-1	-1.7
Oc1ccc(C=NNc2nc3ccccc3s2)c(O)c1
  0%	5.4	-55	-73	-21
COc1ccccc1NC(=O)N(C)C[C@@H]1OCc2cn(nn2)CCCC(=O)N([C@H](C)CO)C[C@H]1C
  -1%	0.0&1.3	3&-1	5&2	2.5&3.0
CN(C(=O)c1cccc(NC(=O)Cc2ccc(NC(=O)C3CCCN(C(=O)c4ccccc4)C3)cc2)c1)C1CCC1 (configuration not stated)
  0%	-0.3	-2	2	-2.8
COc1cc2ccc(C(C)=NNC(N)=S)cc2cc1OC
  3%	4.8	-26	-33	-8.1
COc1ccc(CCc2ccc3ccccc3n2)cc1
  -11%	-3.4	-53	-68	-13
COc1ccc(N/C(N)=N/c2nc(C)cc(C)n2)cc1
  -1%	-2.2	18	13	-2.1
COc1ccc(OCC(=O)Nc2cc(S(=O)(=O)N3CCCC3)ccc2OCC(F)(F)F)cc1
  -23%	0.1	2	3	-2.2
O=c1cc(C2CCCCC2)[nH]c(=O)[nH]1
  -2%	4.7	27	16	3.7
COc1ccc(S(=O)(=O)N2CCCCCC2)cc1NC(=O)Cc1n[nH]c(=O)c2ccccc12
  3%	0.4	1	-3	0.5
CCCn1c(=S)[nH]c2cc(C(=O)N3CCN(C)CC3)ccc2c1=O
  0%	-4.5	-1	4	-0.2
O=Cc1nccc2ccccc12
  -7%	0.8	28	4	4.3
Cc1cc(OCC(=O)Nc2nccs2)c2c(C)c(C)c(=O)oc2c1
  -15%	-3.3	0	9	-6.2
Cc1nc(Cl)sc1C(=O)Nc1cccc(C(F)(F)F)c1
  9%	-6.6	-9	-4	-2.2
CCN(c1ccccc1)S(=O)(=O)c1cc(C(=O)NCc2ccccn2)ccc1C
  -4%	-15	-19	-36	-0.4
O=S1(=O)CCN(C2CCCCCCC2)CC1
  -9%	1.4	1	2	-6.4
O=C(COC(=O)C1CCN(S(=O)(=O)c2cccs2)CC1)Nc1ccc(F)c(F)c1F
  2%	-1.5	-5	-13	1.3
O=C(c1ccco1)N1N=C(c2ccccc2O)CC1c1cccs1 (configuration not stated)
  4%	3.3	-57	-77	-18
O=c1[nH]c(=O)c2cc3ccccc3nc2[nH]1
  1%	-6.6	12	14	-0.5
CCOc1ccc(NC(=O)CN(C)C(=O)c2cc([N+](=O)[O-])ccc2Sc2ccccc2)cc1OCC
  3%	12	-12	-10	0.1

Arranged by the number under rRNA inh HTS (ascending): some entries from above.
Results follow in this order: Vif TR-FRET	AF4-AF9 inh	rRNA inh HTS	rRNA inh HTS OD600	rRNA inh HTS RFP
COc1ccc(CCc2ccc3ccccc3n2)cc1
  -11%	-3.4	-53	-68	-13
Cc1cc(OCC(=O)Nc2nccs2)c2c(C)c(C)c(=O)oc2c1
  -15%	-3.3	0	9	-6.2
COc1ccc(OCC(=O)Nc2cc(S(=O)(=O)N3CCCC3)ccc2OCC(F)(F)F)cc1
  -23%	0.1	2	3	-2.2
Cc1ccc(S(=O)(=O)N2CCOCC2)cc1NC(=O)COC(=O)c1cnc(Cl)c(Cl)c1
  6%	0.1	9	12	-1.9
CCCCn1c(N)c(N(CCOC)C(=O)CC2CCCCC2)c(=O)[nH]c1=O
  0%	8.6	10	10	-0.7

The list goes on.
Results follow in this order: Vif TR-FRET	AF4-AF9 inh	rRNA inh HTS	rRNA inh HTS OD600	rRNA inh HTS RFP
CCOC(=O)C1=CNS(=O)(=O)NC1c1ccc(C[C@H](NC(=O)CNC(=O)CCc2ccccc2)C(N)=O)cc1 (some centres not stated)
  4%	-2.5	4	10	-0.8
N#CCC(=O)Nc1ccc(C(=O)OCC(=O)Nc2cccc3ccccc23)cc1
  -2%	-3.0	-1	5	5.4
CC1(c2ccc(F)cc2)OC(=O)c2c1ccc1ccccc21 (configuration not stated)
  -2%	-1.2	-10	-33	-12
CC(=O)Nc1ccc2cnn(C(C)=O)c2c1
  -2%	-1.3	1	3	0.1
O=C(COC(=O)Cc1ccc(Br)cc1)NCc1ccc2c(c1)OCO2
  -10%	-4.1	-7	-9	1.3
Cc1ccc(S(=O)(=O)N2CCOCC2)cc1NC(=O)CSc1nnnn1C1CC1
  3%	-2.1	17	27	0.9
Cc1n[nH]c2ccc(Br)cc2c1=O
  0%	2.1	11	11	-2.5
O=C(O)c1ccc(NC(C(=O)c2ccccc2)c2ccccc2)cc1 (configuration not stated)
  11%	7.7	3	9	1.1
Cc1ccc(-n2cnc3c(=O)[nH]cnc32)cc1
  -4%	-1.8	-3	5	1.5
Nc1cc(C(=O)OCC(=O)N2CCN(C(=O)COC(=O)c3ccc(Cl)c(N)c3)CC2)ccc1Cl
  -9%	-12	5	7	-0.4
c1cc(N2CCCCC2)nc(N2CCCCC2)n1
  -3%	1.3	-3	-4	-2.0
Cc1cc(O)c(C(C)C)cc1N=Cc1ccccc1[N+](=O)[O-]
  -3%	16	4	9	5.9
OC(C#Cc1ccccc1)(c1ccccc1)c1ccccc1
  -2%	-2.5	-62	-81	-19
O=C(Nc1ccccc1)OCCNC1CCCCC1
  -2%	-1.5	16	13	-2.6
CC(C)(C)OC[C@H](NC(=O)c1[nH]cnc1C(=O)Nc1ccccc1F)C(=O)OC(C)(C)C
  -4%	2.1	2	3	-0.9
CC(C)(C)[C@@H]1C=C(C(=O)O)[C@H](c2ccc(Cl)cc2)N1S(=O)(=O)c1ccccc1
  3%	-0.5	-11	3	-4.0
O=C(O)c1sccc1S(=O)(=O)N1CCCCC1
  -6%	-2.5	13	15	-0.1
Nc1ccc(S(=O)(=O)c2cc(O)c3ccccc3c2O)cc1
  25µM*	-1.1	-28	-43	-6.7
O=C(Nc1ccc(C(=O)N2CCCC2)cc1)C1CC1
  -1%	2.1	20	5	1.3
COc1ccc(NC(=O)Nc2ccc3c(c2)C(=O)N([C@H](C)CO)C[C@H](C)[C@@H](CN(C)Cc2ccc(Cl)c(Cl)c2)OCCCC[C@@H](C)O3)cc1
  10%	-1.1&-2.2	3&1	10&-3	0.3&0.4
COc1ccc(C=NNC(=O)CCCCC(=O)NN=Cc2ccc(OC)cc2)cc1
  3%	2.6	25	16	1.9
COc1ccc([C@H]2C(C(=O)O)=C[C@@H](C(C)(C)C)N2S(=O)(=O)c2ccc(C)cc2)cc1OC
  5%	-7.6	10	12	19
COc1cc(N(C(C)=O)c2ccc(O)c(C(=O)O)c2)c2ncccc2c1
  19%	2.1	12	14	17
Cc1cc(C)n2nc(SCC(=O)NC3(C#N)CCCCC3)nc2n1
  6%	0.2	11	12	0.0
CCCCCCCC1=NN(c2ccc(S(=O)(=O)O)cc2)C(=O)C1N=O (configuration not stated)
  10%	-0.4	1	5	0.0
COc1cccc(N2CCN(C(=O)c3cccc(NC(=O)C4=C(C)OCCS4)c3)CC2)c1
  5%	6.9	-4	-6	9.5

Bioassay records as filed in PubChem.

Only part of the results is shown, so the mix of outcomes need not match the whole.
